# Assay outcomes (PubChem BioAssay)
# Jurkat viability: cytotoxicity toward Jurkat T cells, primary screen, cytotoxicity control, cell-based, Jurkat E6.1, 60K MLSMR library. Jurkat E6.1 viability, ATP luminescence, 48 h. inhibition, % at 4 µM. 56,000 tested, 1.2% active. AID 463, 2006;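 active means inhibition above the mean inhibition of all tested compounds plus 3 SD, cut at about 28% in these data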
# MMP13 inh: human MMP13 inhibitors, primary screen, biochemical, FRET peptide cleavage | MMP-13 fTHP FRET cleavage, Mca fluorescence | 65,000 tested, 0.07% active | inhibition, % at 4 µM;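 active means inhibition above the mean of compound-free control plate wells plus 3 SD, cut at about 14% in these data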;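 further: 0% = DMSO wells and 100% = wells with reference MMP-13 inhibitor after basal subtraction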
# TNAP act mid DEA: human TNAP enzyme activators, primary screen, biochemical, luminescent, intermediate phosphate acceptor level | Alkaline phosphatase, tissue-nonspecific isozyme (Homo sapiens), P05186 | purified TNAP, CDP-star luminescence, 100 mM DEA, 30 min; hits give high values; scale: 0 levamisole-inhibited, 1 vehicle-only enzyme | activation factor at 20 µM | 64,000 tested, under 10 active | AID 813, 2007;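 active means activation factor of at least 2 at 20 µM, relative to controls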
# Target sequence (P05186 whole entry, looked up): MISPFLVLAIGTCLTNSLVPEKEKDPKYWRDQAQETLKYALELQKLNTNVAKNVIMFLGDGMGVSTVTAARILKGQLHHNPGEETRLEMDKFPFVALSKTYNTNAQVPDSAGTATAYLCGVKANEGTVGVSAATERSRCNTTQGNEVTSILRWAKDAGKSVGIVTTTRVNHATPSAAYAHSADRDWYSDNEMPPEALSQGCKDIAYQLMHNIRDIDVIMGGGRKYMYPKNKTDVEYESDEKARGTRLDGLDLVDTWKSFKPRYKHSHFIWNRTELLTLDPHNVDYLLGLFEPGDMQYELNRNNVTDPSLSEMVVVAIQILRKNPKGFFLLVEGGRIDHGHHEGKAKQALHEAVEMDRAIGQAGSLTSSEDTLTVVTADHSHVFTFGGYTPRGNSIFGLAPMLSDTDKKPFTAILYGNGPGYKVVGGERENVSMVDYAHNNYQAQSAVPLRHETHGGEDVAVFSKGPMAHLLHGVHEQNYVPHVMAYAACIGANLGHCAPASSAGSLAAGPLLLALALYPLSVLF
# HEK293 NFkB inh: inhibitors of PMA/ionomycin-induced NF-kB reporter, primary screen, antigen receptor NF-kB inhibitor project, cell-based, HEK-293 luciferase reporter, luminescence; AID 465, 2006; HEK-293 NF-kB luciferase reporter; inhibition, % at 3 µM; 62,000 tested, 0.21% active;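 active means inhibition above the mean of all tested compounds plus 3 SD, cut at about 40% in these data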;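 further: 0% = stimulated DMSO wells and 100% = 10 µM reference inhibitor 5653914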
#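 System – HEK-293 cells with stable firefly luciferase reporter driven by four HIV NF-kB elements · Doses – one dose, 3 µM · Schedule – 1 h compound pre-incubation, 16 h PMA/ionomycin at 37 °C · Technique – luminescence from luciferase substrate reagent · Measure – percent inhibition normalized per plate to DMSO and reference-inhibitor controls · Replicates – tested once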
# Cdc25B block: inhibitors of Cdc25B phosphatase catalytic domain, primary screen, biochemical, OMFP fluorescence. M-phase inducer phosphatase 2 (Homo sapiens), P30305. recombinant Cdc25B, OMFP fluorescence Ex485/Em525. inhibition, %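 (compounds tested at 10 µM final in the well)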. 65,000 tested, 0.1% active. AID 368, 2006; in the data active means inhibition above about 50%
# Target sequence (P30305 whole entry, looked up, the tested form may be a part): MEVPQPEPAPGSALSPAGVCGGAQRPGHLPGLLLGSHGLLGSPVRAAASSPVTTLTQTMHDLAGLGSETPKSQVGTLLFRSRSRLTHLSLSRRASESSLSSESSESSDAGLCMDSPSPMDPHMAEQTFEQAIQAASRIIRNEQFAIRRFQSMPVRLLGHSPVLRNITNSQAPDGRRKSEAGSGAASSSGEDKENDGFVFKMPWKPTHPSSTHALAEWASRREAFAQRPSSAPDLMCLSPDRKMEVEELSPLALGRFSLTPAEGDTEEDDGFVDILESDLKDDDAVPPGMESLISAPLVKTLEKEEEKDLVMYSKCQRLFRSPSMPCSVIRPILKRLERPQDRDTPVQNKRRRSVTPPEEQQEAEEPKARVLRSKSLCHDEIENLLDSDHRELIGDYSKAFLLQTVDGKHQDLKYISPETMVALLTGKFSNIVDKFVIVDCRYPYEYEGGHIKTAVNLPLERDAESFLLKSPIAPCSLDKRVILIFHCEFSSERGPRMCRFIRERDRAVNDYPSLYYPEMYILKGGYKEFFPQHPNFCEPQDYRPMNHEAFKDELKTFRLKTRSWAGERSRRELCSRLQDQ
# MKP-1 inh: MKP-1 phosphatase inhibitors, primary screen, biochemical, in vitro. recombinant MKP-1, OMFP hydrolysis fluorescence. Dual specificity protein phosphatase 1 (Homo sapiens), P28562. inhibition, %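 (compounds tested at a single concentration somewhere between 10 and 100 µM)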. 65,000 tested, 0.15% active. AID 374, 2006;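 active means inhibition above about 50%, limit read from the data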;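 further: 0% = DMSO max control wells and 100% = wells with enzyme stopped by NaOH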
# * = called active by the depositor; nt = not tested or not shown; [ ] = remark or other dose. The list is partial (hit frequency here may not be typical).
SMILES,Jurkat viability,MMP13 inh,TNAP act mid DEA,HEK293 NFkB inh,Cdc25B block,MKP-1 inh
CC(C)c1c(O)nc(SCCC(=O)O)[nH]c1=O,-1,-4,1,-6,-12,-22
O=C(OCC(=O)c1ccco1)c1ccc2ncsc2c1,-4,-15,0.9,2,8,12
CN(c1ccccc1)c1nc(N2CCCC2)nc(-n2ccnc2)n1,12,-1,1,28,-10,-18
O=C(NCCCn1ccnc1)c1csc2ccccc12,0,-1,0.8,11,-11,-6
COc1ccc(C2CC(=O)NC3=C2C(=O)CCC3)cc1Cl (stereo unspecified),-1,4,0.9,-4,-1,5
CCOc1cc(-c2nc3ccccn3c2NCC2CCCO2)ccc1O (stereo unspecified),8,-47,0.9,15,-10,-3
Cn1c(SCCOc2ccccc2Cl)nnc1-c1ccncc1,-5,0,0.9,12,-3,3
Cc1ccc(NC(=O)C2CCCN(c3ncccn3)C2)cc1F (stereo unspecified),8,-1,0.9,-8,0,4
Cn1c(=O)c2c(nc(NCCc3ccccc3)n2Cc2ccc(F)cc2)n(C)c1=O,1,2,1,9,-5,2
CC(=O)c1ccc(NC(=O)C2CC(c3ccc(F)cc3)=NO2)cc1 (stereo unspecified),-5,2,1,7,-5,8
CCCCn1nnnc1NCc1cc(OC)c(OC)cc1OC,-3,0,0.9,16,-3,-18
Cc1ccc(-n2c(SCC(N)=O)nnc2-c2ccccn2)cc1C,0,0,0.9,12,2,14
CCCCC(=O)Nc1ccc(C(=O)NCCCn2ccnc2)cc1,57*,2,1,10,3,0
COc1cc(NS(=O)(=O)c2ccc(F)cc2)c(C(=O)O)cc1OC,-6,-7,0.9,11,-7,-22
COCCNS(=O)(=O)c1cccc2cccnc12,-3,2,1,17,-2,5
O=C1CC(Cc2ccccc2)C(=O)N1Cc1ccco1 (stereo unspecified),-4,3,1,-3,3,15
CS(=O)(=O)N(CC(N)=O)c1ccc2c(c1)OCO2,4,-1,1,9,1,-13
c1ccc(-c2cnc(-c3cccnc3)o2)cc1,-3,-168[fluorescence artefact?],0.9,-10,-10,4
O=C(CSc1nnc2c3c4c(sc3ncn12)CCCC4)NCc1ccco1,-3,4,0.9,14,3,-15
O=C(NC1CCCC1)C1CC(c2ccc(F)cc2)=NO1 (stereo unspecified),5,-2,0.9,8,0,1
CCn1c(COc2ccc(C)cc2)nnc1SCC(=O)Nc1ccc(S(N)(=O)=O)cc1,-5,8,0.8,-4,4,-5
COc1ccc(OC)c(CN(CCCN2CCOCC2)S(=O)(=O)c2ccc(NC(C)=O)cc2)c1,-2,-4,0.9,0,0,-1
Cc1nn(-c2ccccc2)c2[nH]c(=O)c(CNCC3CCCO3)cc12 (stereo unspecified),3,-15,0.9,18,-5,11
Cc1ccc(N2C(N)=NC(N)=NC23CCCC3)c(C)c1,-5,2,0.8,25,-2,-1
O=c1cc(O)nc(SCc2ccccc2Cl)[nH]1,-3,0,1,13,-4,4
Cc1cc(C(=O)NCCCn2ccnc2)sc1-c1ccccc1,6,-13,1,14,1,-2
O=C(CCn1nnc2ccccc2c1=O)N[C@@H](Cc1ccccc1)C(=O)O,-2,0,0.9,9,9,24
Cn1ncc2nnn(-c3ccccc3)c(=O)c21,nt,-2,1,nt,13,-18
O=C(CN1CCOCC1)N1CCN(c2nnc(-c3ccccc3)c3ccccc23)CC1,1,2,0.8,12,5,7
COC(=O)c1ccc2c(c1)N(Cc1nc(-c3cccc(Cl)c3)oc1C)C(=O)C1CCCN21 (stereo unspecified),16,-2,0.9,20,7,19

# 3 entries already listed, sorted by length of the SMILES, ascending.
SMILES,Jurkat viability,MMP13 inh,TNAP act mid DEA,HEK293 NFkB inh,Cdc25B block,MKP-1 inh
Cn1ncc2nnn(-c3ccccc3)c(=O)c21,nt,-2,1,nt,13,-18
CS(=O)(=O)N(CC(N)=O)c1ccc2c(c1)OCO2,4,-1,1,9,1,-13
O=C(CCn1nnc2ccccc2c1=O)N[C@@H](Cc1ccccc1)C(=O)O,-2,0,0.9,9,9,24

# Additional results follow.
SMILES,Jurkat viability,MMP13 inh,TNAP act mid DEA,HEK293 NFkB inh,Cdc25B block,MKP-1 inh
COc1ccc(C(=O)Cn2c(N3CCCCC3)nc3c2c(=O)n(C)c(=O)n3C)cc1OC,nt,-5,0.9,nt,-5,-5
Cc1cc(NC(=O)c2ccccc2)sc1C,5,2,0.9,-30,-21,0
N#CCCN1CCN(C(CNS(=O)(=O)c2ccc(Cl)cc2)c2ccccc2)CC1 (stereo unspecified),-1,4,0.9,2,-12,8
O=C(NCc1ccc(F)cc1)c1cnc2sccn2c1=O,-6,-9,0.9,8,-1,14
CC1=CC(C)(C)Nc2ccc(OC(=O)c3cccnc3)cc21,17,6,0.9,44*,4,9
CCOc1ccc(C2/C(=C(/O)c3ccc(F)cc3)C(=O)C(=O)N2CCCN(C)C)cc1 (stereo unspecified),nt,3,0.9,nt,4,-22
O=C(Nc1ccccc1C(=O)O)c1cccc(NC(=O)c2ccc(Br)o2)c1,3,4,0.9,9,3,16
COc1cc2c(cc1OC)CN(C(=O)CSc1nnc3scc(-c4ccccc4)n13)CC2,3,-2,0.8,15,-6,-2
O=C(CN1C(=O)c2ccccc2C1=O)N1CCN(c2nnc(-c3ccccc3)c3ccccc23)CC1,2,-8,nt,8,-3,-6
O=C(O)CCS(=O)(=O)c1cccc2cccnc12,6,6,1,12,-4,32
CCSc1nc2sc3c(c2c2nnc(SCC(=O)NCc4ccco4)n12)CCCC3,nt,-7,0.9,nt,13,-2
CCN1CCN(C(CNS(=O)(=O)c2ccc(OC)cc2)c2cccnc2)CC1 (stereo unspecified),0,0,1,-1,-5,-3
COc1ccc(C(=O)N(CN2CCCC2=O)c2nccs2)cc1OC,-1,1,1,-1,25,8
Cc1cc(-c2nn3c(C)nnc3s2)ccc1NC(=O)C(C)(C)C,2,-2,1,-2,-18,8
O=C(Nc1ccccc1)c1cccnc1Nc1ccccc1,-4,3,0.9,6,2,3
COCCNc1nc2c(c(=O)n(C)c(=O)n2C)n1Cc1cccc(C)c1,28*,3,0.9,8,16,4
CCOc1ccccc1C(=O)NCCCn1ccnc1,10,-2,0.8,-2,-2,5
CCCc1nc2ccccc2n2cc3c(=O)n(C)c(=O)n(C)c3c12,-3,1,0.9,23,0,-5
CCOC(=O)CNC(=O)CSc1nnc(COc2ccc(Cl)cc2)n1CC,2,-2,0.9,4,-3,11
N#Cc1ccc2ccn(CC(=O)NCc3ccccc3)c2c1,0,-13,0.9,13,-2,0
COc1ccc(-n2ncc3c(NC(C)C)ncnc32)cc1,-3,-26,0.8,-16,3,-14
O=C(CC1Oc2ccccc2NC1=O)NCc1ccccc1 (stereo unspecified),4,1,1,9,-1,8
NC(=O)c1cc(-c2ccccc2)nc(N2CCCCCC2)n1,2,2,0.9,9,4,4
COc1ccc(NC(=O)c2ccc(S(=O)(=O)N3CCOCC3)cc2)c(OC)c1,-2,-2,0.8,11,-4,-26
O=C(O)c1cccc(S(=O)(=O)N2CCSCC2)c1,4,-3,1,20,-4,-4
CCOC(=O)N1CCN(Cc2cc(=O)oc3ccc(Cl)cc23)CC1,-11,1,1,12,-18,-17
CC1=C(C(=O)OCC2CCCO2)C(c2ccccc2OC(C)C)C2=C(CC(c3ccco3)CC2=O)N1 (stereo unspecified),8,6,1.2,22,-5,11
c1ccc(C(c2ccccc2)N2CCN(Cc3nnnn3C3CCCC3)CC2)cc1,2,1,0.9,0,-10,-2
CCOC(=O)c1sc(NC(=O)CSc2ccccn2)c(C#N)c1C,-7,-1,0.9,-3,-3,23
CCOC(=O)c1c(NC(=O)Cn2nnc3ccccc32)sc2c1CCC(C)C2 (stereo unspecified),-4,5,0.9,6,0,23

# Compound profiles, from the list above. Order of screens: Jurkat viability | MMP13 inh | TNAP act mid DEA | HEK293 NFkB inh | Cdc25B block | MKP-1 inh
# CCOC(=O)CNC(=O)CSc1nnc(COc2ccc(Cl)cc2)n1CC reads 2 | -2 | 0.9 | 4 | -3 | 11
# c1ccc(C(c2ccccc2)N2CCN(Cc3nnnn3C3CCCC3)CC2)cc1 reads 2 | 1 | 0.9 | 0 | -10 | -2
# CCOC(=O)c1sc(NC(=O)CSc2ccccn2)c(C#N)c1C reads -7 | -1 | 0.9 | -3 | -3 | 23
# CC1=C(C(=O)OCC2CCCO2)C(c2ccccc2OC(C)C)C2=C(CC(c3ccco3)CC2=O)N1 (stereo unspecified) reads 8 | 6 | 1.2 | 22 | -5 | 11
# N#Cc1ccc2ccn(CC(=O)NCc3ccccc3)c2c1 reads 0 | -13 | 0.9 | 13 | -2 | 0

# Further results follow.
SMILES,Jurkat viability,MMP13 inh,TNAP act mid DEA,HEK293 NFkB inh,Cdc25B block,MKP-1 inh
On1c(-c2ccco2)nc2c1CCc1nonc1-2,-10,-1,1,21,-17,-5
CCN(CC)c1ccc(C(=O)OCC(=O)c2ccco2)cc1,-2,-2,1,1,-6,3
O=c1c2ccccc2[nH]c(=S)n1CCN1CCC(=C(c2ccc(F)cc2)c2ccc(F)cc2)CC1,nt,5,0.9,nt,-17,16
COCCN1CC(O)=C(c2nc3ccccc3c(=O)[nH]2)C1=N,1,-51,0.8,10,-6,21
O=C(CCn1nnc2ccccc2c1=O)NCC1CCC(C(=O)O)CC1 (stereo unspecified),-7,3,0.9,10,4,28
C=CCNc1nc(N(c2ccccc2)c2ccccc2)nc(-n2ccnc2)n1,-9,3,0.9,4,12,-1
CC1(C)Cc2ccccc2C(/C(=N/O)C(N)=O)=N1,2,-1,0.9,7,-5,3
Cc1ccc(C(=O)NCCCn2ccnc2)o1,-2,5,0.9,9,-2,-3
CCC(=O)c1ccc(OCCN2CCOCC2)cc1,-11,-1,0.9,-2,5,2
CCCNS(=O)(=O)c1cccc2cccnc12,-9,0,0.9,13,-6,2
COc1nc(N2CCOCC2)nc(-n2cccc2)n1,4,9,0.9,13,14,3
CCOC(=O)/C(C#N)=C1/C=C(C)NC(c2ccccc2O)=N1,0,-4,1,0,-8,17
COc1ccccc1NC(=O)C1=C(C)Nc2nnnn2C1c1cccc(C)c1 (stereo unspecified),-2,1,0.9,5,-2,-8
COc1ccc(-c2nnc(SCCC(=O)O)n2C)cc1OC,-4,3,0.9,-1,-7,1
CCCCn1nnnc1NCc1ccc(OC)c(OC)c1,4,0,0.9,18,-2,8
Cn1c(C(=O)NCCCN2CCCC2=O)cc2c(=O)n3ccccc3nc21,0,-425[fluorescence artefact?],1,16,0,10
COCCn1nnnc1C(c1cc2c(C)cc(C)cc2[nH]c1=O)N1CCCCCC1 (stereo unspecified),14,-4,1.1,22,8,26
COc1cc2c(cc1OC)CN(C(=O)c1ccccc1C(=O)O)CC2,0,-13,0.9,10,-2,-3
COc1cc(C)ccc1NC(=O)c1ccc(S(=O)(=O)N2CCOCC2)cc1,-1,3,0.9,6,-4,14
Cc1noc(C)c1S(=O)(=O)N(CC(=O)O)c1ccc2c(c1)OCO2,-12,2,0.9,2,13,6
CCCC(C(=O)NC1CCCC1)N(CCCN1CCOCC1)C(=O)c1snc(C(N)=O)c1N (stereo unspecified),-9,-14,0.9,-6,0,4
COc1ccc(OC)c(C2NC(=O)NC(C)=C2C(=O)Nc2ccc(C)cc2C)c1 (stereo unspecified),1,5,0.9,12,-1,8
COCC(C)Nc1ncnc2c1cnn2-c1ccc(Cl)cc1 (stereo unspecified),nt,-28,1,nt,1,-13
O=C1CC(c2ccccc2)CC(O)=C1C=NCCCO (stereo unspecified),-2,-4,0.9,8,-5,2
CCOc1cc2[nH]c(=O)n(CCCC(=O)NCc3ccco3)c(=O)c2cc1OCC,-4,-15,0.9,7,-9,21
N#Cc1cnc(SCC(=O)c2ccccc2)nc1N,2,-1,0.8,15,1,0

# Three entries from above, sorted by the number in TNAP act mid DEA, rising:
SMILES	MMP13 inh	TNAP act mid DEA	Cdc25B block	MKP-1 inh
N#Cc1cnc(SCC(=O)c2ccccc2)nc1N	-1	0.8	1	0
O=C1CC(c2ccccc2)CC(O)=C1C=NCCCO (stereo unspecified)	-4	0.9	-5	2
Cn1c(C(=O)NCCCN2CCCC2=O)cc2c(=O)n3ccccc3nc21	-425[fluorescence artefact?]	1	0	10
